Screening results from PubChem BioAssay.
AID504770 = growth inhibition of E. coli YBA685, primary screen, V. cholerae RctB inhibitors; E. coli YBA685 rctB-dependent plasmid, OD600 growth, 3 h; hits give low values; z-score (concentration not given with the values); 0.27% of 130,000 active;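 active = z-score under -2 on both plates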;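 also: wells of about 30 µL received 100 nL stock; score is relative to mean and SD of the test wells; the first replicate is given; strong numbers were not always called active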
CapD inh = Bacillus anthracis CapD inhibitors, primary screen, biochemical, fluorescence intensity; CapD gamma-glutamyltranspeptidase (Bacillus anthracis Ames Ancestor); purified CapD enzyme, fluorescence intensity read-out; hits give low values; some hits fall short of the stated cut; z-score (test concentration not listed); 0.23% of 140,000 active;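 active = z-score under -4 in either of two replicates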;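 also: stock transfer was 100 nL into about 40 µL; score is relative to mean and spread of the plate; one replicate is shown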
An asterisk follows results filed as active; nt = no result given. An excerpt; count on the stated rates, not on these rows.

SMILES	AID504770	CapD inh
Cc1ccc2cc(C)c(Nc3ccc4c(c3)OCO4)nc2c1	-0.5	-0.36
Nc1c(C(=O)Nc2ccccc2)sc2nc3c(c(-c4cccs4)c12)CCC3	nt	0.05
Cc1ccc2nsnc2c1NC(=O)c1ccc2c(c1)OCCO2	nt	-0.15
NC(C(=O)O)c1ccsc1 (centres undefined)	-1.4	0.34
O=c1nc(Nc2ccc(OC(F)(F)F)cc2)oc2ccccc12	-0.85	-0.3
O=C(NC(=S)Nc1cc(C(F)(F)F)cc(C(F)(F)F)c1)Oc1ccccc1	1.5	1.9
COc1ccc(C(=O)Nc2nnc(CCS(=O)(=O)c3ccc(Cl)cc3)s2)cc1OC	nt	-0.33
CCc1nn2c(=O)cc(COc3ccc(/C=C4/C(=N)N5C=CSC5=NC4=O)cc3OC)nc2s1	0.45	0.31
O=C1Nc2ccc(S(=O)(=O)Nc3ccccc3)c3cccc1c23	0.3	nt
COc1ccc2nc3oc(C(=O)N4CCCCC4)cc3cc2c1	2.3	-0.34
CCOc1ccc2nc(SCC(=O)Nc3cccc(SC)c3)sc2c1	nt	-0.95
CC(C)CNc1ncnc2c1c(-c1ccccc1)cn2-c1ccccc1	-0.7	25
Cc1csc(=O)n1CC(=O)OCC(=O)N(C)c1c(N)n(Cc2ccccc2)c(=O)[nH]c1=O	0.45	nt
Cc1ccccc1C(=O)c1c[nH]c(C(=O)NCc2cccc(C(F)(F)F)c2)c1	nt	-0.27
O=C(O)c1ccc(CN2C(=O)CSc3ccccc32)o1	-0.3	nt
CCOC(=O)C1CCN(C(=O)CN2C(=O)c3ccccc3C2=O)CC1	0.9	0.48
Cc1cc(OCc2c(C)c(C)c(C)c(C)c2C)c2cc(F)ccc2n1	nt	0.72
COc1ccc(/C=C2/SC(=S)N(CCC(=O)Nc3nccs3)C2=O)cc1	2.6	-0.04
Cc1sc2ncn3ncnc3c2c1C	-0.1	nt
Cc1nn2c3c(sc2nc1=O)C(=O)N(c1ccc(F)c(Cl)c1)C3=O	-0.95	0.22
CON(C)C(=O)Nc1cc2sccc2nc1C(F)(F)F	nt	0.14
N#C/C=C/c1ccc(C(=O)O)cc1	-0.7	0.54
Cc1c(C)c(NC(=O)/C=C/C(=O)O)c(C)c(C)c1NC(=O)/C=C/C(=O)O	1.4	-0.22
CC(=O)Nc1ccc(S(=O)(=O)N(C)c2ccc(O)c(N=Nc3cccc4c(=O)[nH][nH]c(=O)c34)c2)cc1	0.2	nt
CCOc1ccc2c(c1)sc(=N)n2Cc1ccc(Cl)cc1	-1.1	-0.81
(next part)
SMILES	AID504770	CapD inh
COc1ccc2nc(Cl)c(CN(C(=O)c3ccco3)C3CCCC3)cc2c1	2.5	nt
COc1ccc(-c2nnc3[nH]c(=O)cc(C)n23)cc1	0.2	nt
CCOC(=O)C1=C(CSc2nc(CC)c(C)cc2C#N)OC(N)=C(C#N)C1c1ccccc1OC (centres undefined)	nt	1.5
COc1ccc(-c2[nH]ncc2-c2ccncn2)cc1	nt	-0.38
CC(C)(C)c1csc(-c2sccc2COc2ccc(Cl)cc2)n1	-0.5	52
CCOC(=O)C1=C(CSc2nnc(-c3cccs3)n2-c2ccccc2)NC(=O)NC1C (centres undefined)	-2.5*	nt
COc1ccc(CCNC(=O)c2cn(C)c(=O)c3cc(OC)c(OC)cc23)cc1OC	2.2	1.5
CC(O)[C@@]12CC=CC[C@@H]1CC1C3CC=C4C[C@@H](O)CC[C@]4(C)C3CC[C@@]12C (some centres undefined)	nt	-0.28
Cc1ccc(Nc2nnc(SCC(=O)N(C)C)s2)cc1	-0.15	nt
CCN(CC)c1c(S(=O)(=O)c2ccc(C)cc2)cnc2ccccc12	-0.75	0.14
CC(=O)O[C@@H]1[C@H]2OC(C)(C)O[C@H]2O[C@@H]1C(O)CO (some centres undefined)	-0.7	1.2
COc1cc(NC(=O)c2sc3ncn(CC(=O)N4CCCCC4C)c(=O)c3c2C)cc(OC)c1OC (centres undefined)	nt	-1.2
O=C1c2sc3nnc(-c4ccccc4)c(=O)n3c2C(=O)N1c1ccccc1Cl	nt	0.63
S=c1ccc2nnc(-c3ccccc3)n2[nH]1	-0.35	nt
Cc1cc2c(ncn2C)c(NS(=O)(=O)c2cccc(C(F)(F)F)c2)c1C	nt	-0.02
CC1CCCCN1C(=O)CN(C)S(=O)(=O)c1cccc2nsnc12 (centres undefined)	2.1	-0.15
c1ccc(-c2cn3c(n2)CCC3)cc1	-0.45	0.44
Cc1ccc(-c2cnnc(-c3ccc(Cl)cc3)n2)cc1	0.45	-0.76
Cc1nn(Cc2ccccc2Cl)c(C)c1NC(=O)COCc1cc(-c2ccc3c(c2)OCO3)on1	2.6	-0.37
O=C(COC(=O)C1CCN(C(=O)Nc2ccccc2)CC1)c1c[nH]c2ccccc12	-0.35	nt
CCn1c(SCC(=O)OCC(=O)Nc2ccc(C)c(F)c2)nnc1-c1cccs1	0.15	nt
CC(C)(C)c1cc2ncnc(N3CCSCC3)c2s1	2.2	1.8
O=C(CN1CCN(Cc2ccc(Cl)cc2)CC1)N1CCc2ccccc21	-0.1	nt
CC1(C)CC(=O)C(C=NC2CC(C)(C)NC(C)(C)C2)=C(O)C1	-0.9	nt
CCC(C)c1ccc(NC(=O)CC(C)C)cc1 (centres undefined)	-0.95	0.17
More records follow.
SMILES	AID504770	CapD inh
CC(C)c1cc(=O)[nH]c(SCCOc2ccccc2Cl)n1	-0.05	nt
COc1ccc(N2CCN(c3c(C(=O)c4ccc(C)cc4)cnc4cc(OC)c(OC)cc34)CC2)cc1	-0.65	nt
COc1ccc(C(=O)Nc2cccc(-c3nc4ccccc4o3)c2)cc1	-0.4	-0.39
O=C(Cc1ccccc1)Nc1ccc2oc(-c3ccncc3)nc2c1	3.8	28
O=C(COc1cccc(C(F)(F)F)c1)NCCc1ccccn1	-0.6	nt
O=C1CC(c2ccccc2)NC(c2ccccc2)C1 (centres undefined)	0.7	0.2
O=C(c1ccccc1)N1CC(=O)N(OCc2ccccc2)C1c1cccs1 (centres undefined)	1.1	0.15
Cn1c(Cc2nc(-c3cnccn3)no2)nnc1SCc1ccc(Cl)cc1	-0.8	0.23
Nc1nc(CSc2nc3ccccc3o2)nc(-c2ccccc2O)n1	0.05	0.18
CCc1cc(C(=O)O)c(SSc2sc(CC)cc2C(=O)O)s1	-0.45	-0.63
O=S(=O)(NCCO)c1cc(Cl)ccc1Cl	-0.1	0.53
CSc1ccc(N2C(=O)C=CC2=O)cc1	-1.8	-0.58
CNC(=O)c1c(O)c2ccccc2[nH]c1=O	0.6	19
O=C(COC(=O)C(Cc1ccccc1)N1C(=O)C2C3C=CC(C3)C2C1=O)c1ccc([N+](=O)[O-])cc1 (centres undefined)	nt	-0.015
C/C(=N\OCC(=O)NC1CCCc2ccccc21)c1cc2ccccc2o1 (centres undefined)	-0.85	nt
CCOC(=O)C1=C(C)OC(N)=C(C#N)C1c1ccccc1F (centres undefined)	nt	0.3
O=S(=O)(Cc1cccc(C(F)(F)F)c1)N1CCCCC1	-0.1	0.18
Cc1cccc2c1-c1sc(C(=O)n3c(C)cc4ccccc43)cc1CO2	2	-0.18
Cc1cc(/C(O)=C2\C(=O)C(=O)N(CCN(C)C)C2c2ccncc2)ccc1OCC(C)C (centres undefined)	0.75	-1.3
CC1(C)Nc2ccccc2-c2nc3ccccc3n21	-0.4	67
CCOC(=O)c1c(NC(=O)C(C)Sc2nnc(CNC(=O)c3cccs3)n2CCc2ccccc2)sc2c1CCC2 (centres undefined)	nt	-0.54
Cn1cccc1Cc1nnc(SCC(=O)Nc2ccccc2)n1-c1ccc(F)cc1	-0.9	-0.89
CCOCCOC(=O)C1=C(C)NC2=C(C(=O)CC(c3cccs3)C2)C1c1cc(OC)c(O)c([N+](=O)[O-])c1 (centres undefined)	nt	-0.9
COC(=O)Cn1ncc2c3ccccc3n(Cc3ccccc3)c2c1=O	2.1	1.5
CCOC(=O)c1ccc(NC(=O)CSc2nc(NCc3ccccc3)c3ccccc3n2)cc1	nt	0.77
Other entries.
SMILES	AID504770	CapD inh
CCc1ccccc1NC(=O)CSc1nc2cc(C(=O)NCC3CCCO3)ccc2c(=O)n1CC1CCCO1 (centres undefined)	nt	-0.51
COc1cc(O)c(/C=N/NC(=O)c2cc(C3CC3)nc3ccccc23)c(OC)c1	nt	-1.5
COc1cccc(CSc2nc3ccncc3n2CC(=O)NCC2CCCO2)c1 (centres undefined)	-0.5	-0.72
CC(C)(C)OC(=O)C(Cc1ccc(OC(C)(C)C)cc1)NC(=O)CC1Cc2ccccc2C1 (centres undefined)	nt	-0.48
Cc1cc2nc(N3CCOCC3)c3ccccc3n2n1	2.1	nt
O=C(Nc1cccc2ccccc12)C1COc2ccccc2O1 (centres undefined)	nt	-0.17
CCCCn1c(SCC(=O)c2ccccc2)nc2ccsc2c1=O	-0.55	30
N=C1SC2CS(=O)(=O)CC2N1Cc1ccccc1 (centres undefined)	0.05	-0.35
CC(=O)OC[C@H]1O[C@@H](N2CCCCC2)[C@H](OC(C)=O)[C@@H](OC(C)=O)[C@@H]1OC(C)=O	-0.2	-0.49
Cc1cccc(CC2SC(=Nc3ccc(Cl)cc3)NC2=O)c1 (centres undefined)	nt	0.69
C=CCn1cc(/C=C(/C#N)c2ccc(F)cc2)c2ccccc21	-0.6	-1.2
O=C(Nc1c2c(nn1-c1ccc([N+](=O)[O-])cc1)CSC2)c1ccc(S(=O)(=O)N2CCOCC2)cc1	nt	-0.3
Cc1ccc(CSc2nnc(-c3ccc4c(c3)OCO4)o2)cc1	-0.1	nt
CN(NC(=O)c1ccccc1F)c1nc(C(F)(F)F)nc2ccccc12	nt	5.9
CCn1cnc2c(=O)[nH][nH]c(=O)c21	0.8	-0.05
CC(C)(C)C1(O)CC(C(F)(F)F)=NN1C(=O)c1ccccc1Br (centres undefined)	nt	0.32
O=C(CN1C2=NCCCN2c2ccccc21)c1ccc(Cl)cc1Cl	nt	-0.73
O=C(c1ccc(=O)[nH]c1)N1CCCCCC1	0.15	nt
CC(=O)OC1(c2ccccc2)CC(C(C)(C)C)CN(C(C)(C)C)C1 (centres undefined)	-0.45	-0.075
N#Cc1c(-c2ccccc2)c(-c2ccccc2)n[nH]c1=S	-0.95	-0.74
Cc1ccc(-c2nc3cc(Br)c(C)c(C)c3nc2-c2ccc(C)cc2)cc1	nt	0.72
CCN(c1ccccc1)S(=O)(=O)c1cccc(C(=O)O)c1	-0.15	nt
COc1ccccc1N1CCN(CCCCOc2ccc(F)cc2)CC1	-0.85	0.34
COc1ccc(NC(=S)NCCN(C2CCCCC2)C2CCCC2)cc1	-0.65	-0.28
Cc1cc2c(cc1S(=O)(=O)N1CCc3ccccc3C1)n(C)c(=O)c(=O)n2C	0.95	5.5
Further compounds:
SMILES	AID504770	CapD inh
CCN1CCN(Cc2ccccc2C#N)CC1	-0.25	nt
O=C(c1ccc(Cl)cc1Cl)n1c(=O)oc2cc(S(=O)(=O)N3CCCCC3)ccc21	-0.95	-0.6
O=C(Nc1ccc(Br)cn1)c1ccc(N2CC3CC(C2)c2cccc(=O)n2C3)c(NC(=O)c2ccncc2)c1 (centres undefined)	nt	-0.33
CCCCCCC1C(=O)NC(=S)N(c2ccccc2)C1=O (centres undefined)	nt	-0.56
O=C(c1cc(S(=O)(=O)N2CCOCC2)ccc1Sc1ccc(Br)cc1)N1CCCCC1	nt	-0.3
O=C(Nc1ccccn1)c1cccs1	-0.1	nt
CCOC(=O)c1c(CSc2ccccc2)n(-c2ccccc2)c2ccc(OC(C)=O)cc12	nt	-0.23
O=C(NCCc1cn2ccccc2n1)c1cccs1	-1.1	nt
COc1ccc(S(=O)(=O)n2ccc(-c3cnc(-c4ccccc4)s3)n2)cc1	nt	21
Fc1ccc(CNCc2ccccc2)cc1	0.15	nt
CCC(CC)c1nc2ccccc2c(=O)[nH]1	-0.65	nt
Cc1cc(/C=N/N2CCN(C)CC2)cc(C)c1O	0.8	-0.54
Cc1ccc(NC2(c3nnnn3CCOC(=O)Nc3ccc(Cl)cc3)CCCCC2)cc1	-0.95	11
C/C=C/COC(=O)C1=C(C)NC(=O)NC1c1cc(Br)c(O)c(OC)c1 (centres undefined)	nt	-0.67
CN(C)C(=O)CN(c1ccccc1)S(=O)(=O)c1ccccc1	-0.55	nt
c1ccc(Oc2ncnc3sccc23)cc1	0.55	nt
CCSCCOC(=O)C1=C(C)NC2=C(C(=O)CC(c3ccccc3)C2)C1c1cccc([N+](=O)[O-])c1 (centres undefined)	nt	-0.55

Structures listed so far with an NH in an aromatic ring:
SMILES	AID504770	CapD inh
Cc1csc(=O)n1CC(=O)OCC(=O)N(C)c1c(N)n(Cc2ccccc2)c(=O)[nH]c1=O	0.45	nt
Cc1ccccc1C(=O)c1c[nH]c(C(=O)NCc2cccc(C(F)(F)F)c2)c1	nt	-0.27
CC(=O)Nc1ccc(S(=O)(=O)N(C)c2ccc(O)c(N=Nc3cccc4c(=O)[nH][nH]c(=O)c34)c2)cc1	0.2	nt
COc1ccc(-c2nnc3[nH]c(=O)cc(C)n23)cc1	0.2	nt
COc1ccc(-c2[nH]ncc2-c2ccncn2)cc1	nt	-0.38
S=c1ccc2nnc(-c3ccccc3)n2[nH]1	-0.35	nt
O=C(COC(=O)C1CCN(C(=O)Nc2ccccc2)CC1)c1c[nH]c2ccccc12	-0.35	nt
CC(C)c1cc(=O)[nH]c(SCCOc2ccccc2Cl)n1	-0.05	nt
CNC(=O)c1c(O)c2ccccc2[nH]c1=O	0.6	19
CCn1cnc2c(=O)[nH][nH]c(=O)c21	0.8	-0.05
O=C(c1ccc(=O)[nH]c1)N1CCCCCC1	0.15	nt
N#Cc1c(-c2ccccc2)c(-c2ccccc2)n[nH]c1=S	-0.95	-0.74
CCC(CC)c1nc2ccccc2c(=O)[nH]1	-0.65	nt
